Source: PubChem
A488 fluor = qHTS Assay for Spectroscopic Profiling in A488 Spectral Region; 0.1% of 59,000 active; compound autofluorescence, A488 spectral region, dye equivalency; stronger effect = higher value; max dye equivalency, M; active = above 10 nM dye equivalent; inconclusive = 1 to 10 nM; inactive = 1 nM or less; about half of its hits are not listed in these tables;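 note: highest value over a series up to 38 µM; compound alone in buffer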
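Read-out: relative fluorescence at 480/540 nm, expressed as Alexa 488 dye-equivalent concentration from a six-point A488 standard included per plate. Conditions: 100 mM Tris, pH 8.0; 15 min incubation, room temperature.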
AID923 = qHTS Assay for Allosteric/Competitive Inhibitors of Caspase-1: Spectroscopic Profiling in AFC Spectral Region. 1.1% of 75,000 active. compound fluorescence, AFC spectral region (405/520 nm); almost no hit is shown here. Potency, µM (doses to about 57.5 µM), for inactives: top-dose fluorescence increase, hits mostly activators. AID 923, 2007; active = well fitted activation curve with a large enough effect; inconclusive = small, poorly fitted or top-dose-only effect;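 note: potency is the fitted concentration of half-maximal effect; 0% is about no effect; scaled to a free AFC standard on each plate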
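Baseline compound fluorescence (AFC region, 405 nm ex/520 nm em) taken from the intercept of kinetic reads with 50 nM caspase-1 and 5 uM Ac-WEHD-AFC; normalized to an on-plate AFC standard curve; compounds titrated up to 57 uM.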
A647 fluor = qHTS Assay for Spectroscopic Profiling in A647 Spectral Region. max dye-equivalent concentration, M. Compound fluorescence, A647 channel (570/671 nm), Tris buffer. 59,000 tested, under 10 active. AID 592, 2007; active means above 1 µM dye equivalent; inconclusive means 0.1 to 1 µM; inactive means 0.1 µM or less;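 note: values scaled relative to a standard on each plate; highest value over a series up to 38 µM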
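Each compound's intrinsic fluorescence at 570 nm excitation and 671 nm emission is measured across its concentration series in 100 mM Tris, pH 8.0, after 15 min at room temperature, and reported relative to an A647 curve.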
Resorufin fluor = qHTS Assay for Spectroscopic Profiling in Resorufin Spectral Region; Compound fluorescence, resorufin region 547/598 nm, buffer; stronger effect = higher value; max dye-equivalent concentration, M; 0.04% of 59,000 active; active = above 10 nM dye equivalent; inconclusive = 1 to 10 nM; inactive = 1 nM or less; a few of its hits are not listed in these tables; note: highest value over a series up to 38 µM
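Compounds in 100 mM Tris, pH 8.0, incubated 15 min at room temperature, then fluorescence read at 547 nm excitation/598 nm emission. Signal converted to dye-equivalent concentration via an on-plate six-point resorufin standard curve, per compound concentration.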
TSHR agonist = qHTS Assay for Agonists of the Thyroid Stimulating Hormone Receptor; Thyrotropin receptor (Homo sapiens), P16473; HEK293-CNG-TSHR cells (CNG channel as cAMP sensor), membrane potential dye, cAMP; Potency, µM (doses to about 57.1 µM), for inactives: top-dose activation, hits mostly activators; 0.48% of 73,000 active; active = well fitted activation curve of enough size with the parental cells flat; inconclusive = any curve in the parental cells; inactive = parental cells flat and receptor cells flat or falling; note: potency is the fitted concentration of half-maximal effect; % of control where 0% means no effect; weak receptor curves with flat parental cells got no call and are not listed
Target sequence (P16473 whole entry, looked up): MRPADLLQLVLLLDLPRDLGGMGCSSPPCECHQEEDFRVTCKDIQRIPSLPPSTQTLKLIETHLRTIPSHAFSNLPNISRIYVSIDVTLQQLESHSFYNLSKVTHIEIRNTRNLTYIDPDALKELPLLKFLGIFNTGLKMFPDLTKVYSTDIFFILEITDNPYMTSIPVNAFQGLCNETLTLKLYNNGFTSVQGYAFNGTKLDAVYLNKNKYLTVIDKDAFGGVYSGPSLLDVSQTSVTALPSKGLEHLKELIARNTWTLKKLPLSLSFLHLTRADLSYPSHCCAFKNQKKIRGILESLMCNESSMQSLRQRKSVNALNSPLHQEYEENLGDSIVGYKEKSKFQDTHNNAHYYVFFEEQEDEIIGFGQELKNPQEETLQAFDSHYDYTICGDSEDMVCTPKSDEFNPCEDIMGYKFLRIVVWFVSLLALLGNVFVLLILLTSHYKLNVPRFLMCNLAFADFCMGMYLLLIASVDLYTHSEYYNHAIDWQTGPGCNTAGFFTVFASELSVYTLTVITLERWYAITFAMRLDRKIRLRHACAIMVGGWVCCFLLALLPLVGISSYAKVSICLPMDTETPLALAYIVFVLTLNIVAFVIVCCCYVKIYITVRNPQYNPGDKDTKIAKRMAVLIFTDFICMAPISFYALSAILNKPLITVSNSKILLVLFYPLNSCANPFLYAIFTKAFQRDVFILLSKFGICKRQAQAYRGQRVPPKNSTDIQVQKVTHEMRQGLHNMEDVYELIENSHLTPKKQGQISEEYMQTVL
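HEK 293 cells stably expressing TSHR and a cAMP-gated CNG channel; parental CNG-only cells as counterscreen. Cells preloaded 60 min with membrane potential dye plus 100 uM RO 20-1724, then compound 30 min; fluorescence read at 590 nm.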
* hit, by the source's call; i = inactive; ? = inconclusive; . = no result given; [ ] = another dose, or the depositor's remark. An excerpt, so the mix of outcomes need not match the whole.

canonical_smiles	A488 fluor	AID923	A647 fluor	Resorufin fluor	TSHR agonist
Fc1ccc(NCc2nnc(SCc3nnc(-c4ccccc4)o3)n2Cc2ccccc2)cc1	i	-0.6%	5.1e-09	i	.
CC(C)CC(c1nnnn1C1CCCCC1)N1CCN(c2ncccn2)CC1 (centres undefined)	i	1.4%	1.9e-08	i	9%
Cc1cc(NC(=O)CSc2nc3c([nH]c4ccccc43)c(=O)n2-c2cccc(C(F)(F)F)c2)no1	i	0.0%	3.5e-09	i	.
O=C(Cn1c(C(F)(F)F)nc2ccccc21)NCCN1CCCC1	i	-0.7%	8.8e-09	i	10%
Cc1cccc(OCC(=O)Nc2cccc(O)c2)c1	i	0.9%	2.8e-08	i	-7%
COCCN1Cc2cccc(C(=O)Nc3cc(OC)ccc3OC)c2C1=O	i	0.3%	3.1e-08	i	12%
FC(F)(F)c1cccc(-n2cccc2/C=N/n2cnnc2)c1	i	.	1e-09	i	.
COc1ccc(C2C(C(=O)O)CC(=O)N2c2ccc(OC)cc2)cc1 (centres undefined)	i	-0.3%	2.2e-09	i	0%[11.4 µM]
O=C(c1ccc(S(=O)(=O)N2CCCCC2)cc1)N1CCN(Cc2ccc3c(c2)OCO3)CC1	.	-0.6%	.	.	4%
CCC(=O)N(Cc1ccc2c(c1)OCO2)Cc1cc2cc(OC)ccc2[nH]c1=O	i	0.1%	7.4e-08	i	6%
COc1ccc(N2CCN(C(=O)CSc3nnc(CNc4ccccc4)o3)CC2)cc1	i	2.6%	1e-09	i	-3%
Cc1nc(NC2=NCN(Cc3ccc4c(c3)OCO4)CN2)nc2ccccc12	i	0.9%	1e-09	i	8%
CCCCC/C=C\C/C=C\CCCCCCCC(=O)O	.	0.6%	.	.	?
N[C@@H](CSc1nc2ccccn2c1[N+](=O)[O-])C(=O)O	i	0.0%[11.5 µM]	3.5e-09	i	5%[11.4 µM]
CCOC(=O)c1[nH]c2ccc(OC)cc2c1NC(=O)CN1CCSCC1	i	-0.2%	1e-08	i	15%
CNC(=O)c1nnn(Cc2ccccc2)c1NC(C)=O	i	-1.9%	7.8e-09	i	0%[11.4 µM]
CCOC(=O)C1=C(N)c2ccccc2CC1C(C)C (centres undefined)	i	.	1e-09	i	.
O=C(CN1CCN(C(c2ccccc2)c2ccccc2)CC1)N1CCOCC1	i	1.3%	1.2e-09	i	-1%
Cc1noc(C)c1S(=O)(=O)NC1CCN(Cc2ccccc2)CC1	.	2.1%	.	.	2%
CCOc1ccc(C2C(C#N)=C(N)SC(N)=C2C#N)cc1OCC	i	5.3%	2.2e-08	i	4%
C/C(=C\C#N)n1nc(C)cc1N	i	-0.4%	1.8e-08	i	-1%
Cc1nn(-c2ccccc2)c(C)c1NC(=O)c1ccc(S(=O)(=O)N2CCCC2)cc1	i	-1.3%	3.6e-09	i	3%
O=C(C1CCN(S(=O)(=O)c2cccnc2)CC1)N1CCN(c2ccc(Cl)cc2)CC1	i	0.3%	4.4e-08	i	12%
O=C(CN1C(=O)NC2(CCOc3ccccc32)C1=O)Nc1ccc2c(c1)OCCO2 (centres undefined)	i	0.5%	1e-09	i	1%[11.4 µM]
CCc1ccc(OCc2nnc(SCC(=O)NCc3ccco3)o2)cc1	i	0.0%	1e-09	i	13%
CCN1CCN(C(=O)c2nn(-c3ccc(OC)cc3)c(=O)c3c2c2ccccc2n3C)CC1	i	-0.1%	3.8e-08	i	?
COCCNC(=O)CN1CCC(NC(=O)Nc2ccc(C(F)(F)F)cc2)CC1	i	1.3%	2.9e-09	i	5%
OC1CCCN(Cc2ccc3c(c2)Cc2ccccc2-3)C1 (centres undefined)	.	-0.7%	.	.	17%
CCOc1ccc(S(=O)(=O)N2CCCCC2)c2ccccc12	.	-0.5%	.	.	?
OC(CN1CCOCC1)CN(c1ccccc1)c1ccccc1 (centres undefined)	i	-1.5%	3.5e-09	i	-2%
COC(=O)CS(=O)(=O)c1nnc([C@H](Cc2ccccc2)NC(=O)OC(C)(C)C)o1	i	-1.3%	1e-09	i	?
CCOC(=O)c1ccc(NC(=O)CSc2nccn2C)cc1	i	-1.6%	9.5e-09	i	-6%
NC1=NC2(CCN(Cc3ccccc3)CC2)n2c(nc3ccccc32)N1	i	1.9%	2.4e-08	i	6%
Nn1c(Cc2ccccc2F)nnc1SCC(=O)N1CC(=O)Nc2ccccc21	i	0.1%	6.1e-08	i	8%
Nc1c(S(=O)(=O)O)cc(Nc2cccc(S(N)(=O)=O)c2)c2c1C(=O)c1ccccc1C2=O	i	1.5%[11.5 µM]	1e-09	i	-13%[11.4 µM]
CCOC(=O)C1=C(O)CSC1=Nc1ccccc1	.	3.9%	.	.	-4%
CCCn1c(SCc2ccccc2)nc2c1c(=O)[nH]c(=O)n2C	i	0.0%	5.6e-09	i	14%
CCOc1cccc(C(=O)Nc2nc(-c3ccc(S(=O)(=O)N4CCOCC4)cc3)cs2)c1	i	2.0%	1.7e-08	i	.
Cc1c(-c2ccccc2)[n+](=O)c(-c2ccco2)c(C)n1[O-]	i	-2.6%	5.4e-09	i	0%
O=C(NCC(=O)N(Cc1ccco1)C(C(=O)NC1CCCC1)c1cccnc1)c1cccs1 (centres undefined)	i	-1.1%	3.3e-09	i	6%
COc1ccc(CNC(=O)C(C)NC(=O)c2cc3ccccc3o2)cc1 (centres undefined)	i	0.5%	1e-09	i	2%
O=C1c2ccccc2C(=O)N1C/C=C/c1ccccc1	i	0.1%	1e-09	i	15%
Cc1noc(NS(=O)(=O)c2ccc(NC(=O)c3cnc4scc(C)n4c3=O)cc2)c1C	.	-2.0%	.	.	-1%
CCCSc1nc(C)c(CC(=O)OCC)c(=O)[nH]1	i	.	4.7e-09	i	.
CCc1ccc2oc(-c3ccc(N)cc3)nc2c1	i	0.8%	6.5e-09	i	-5%
Fc1ccc(OCc2nn3c(Cn4nnc5ccccc54)nnc3s2)cc1	i	-0.5%	2.9e-08	i	14%
CC(=O)NC1Sc2ccccc2N=C1c1ccccc1 (centres undefined)	i	1.8%	7.8e-09	i	?
COc1ccc(-n2c(SCCC#N)nnc2-c2cc(Cl)ccc2OC)cc1Cl	i	-2.9%	1.2e-09	i	14%
COc1ccc(/C(O)=C2/C(=O)C(=O)N(CCCN(C)C)C2c2ccco2)cc1Cl (centres undefined)	i	.	3.1e-08	i	.
CCOc1cc(/C=N/O)cc(Br)c1OC	.	2.0%	.	.	5%[11.4 µM]
C=CCn1c(=O)c2c(C)c(C)sc2n2c(Nc3ccc(OC)cc3)nnc12	i	0.8%	4.5e-09	i	12%
Clc1ccccc1OCCCCn1ccnc1	.	1.5%	.	.	?
CS(=O)(=O)N(CC(=O)Nc1ccc2c(c1)OCCO2)Cc1ccc(Cl)cc1	i	-0.6%	5e-08	i	4%
Cc1cc(-n2nnc3ccccc32)nc2ccccc12	i	-0.1%	1.2e-08	i	?
Cc1ccc(-c2oc3ncnc(N)c3c2-c2ccc(C)cc2)cc1	i	0.6%	2.9e-08	i	.
CCC(C)OC(=O)n1ccc(C(=O)Nc2nccs2)n1 (centres undefined)	i	0.2%	1e-09	i	-7%
COC(=O)N1CCC2(CCCN(c3ccccn3)C2)CC1	i	-0.1%	2.5e-09	i	?
COc1ccc(OC)c(S(=O)(=O)N(C)CC(=O)Nc2ccc3c(c2)OCO3)c1	i	-2.3%	1e-09	i	2%
CN(C)CC(C)(C)NS(=O)(=O)c1ccc(Cl)cc1	i	-1.2%	2.4e-08	i	10%
O=C(COc1ccc(Cl)cc1)Nc1ccc(Cl)cn1	i	-1.9%	4.1e-09	i	?

Copied from the list.
AID923 result of `COc1ccc(OC)c(S(=O)(=O)N(C)CC(=O)Nc2ccc3c(c2)OCO3)c1` is entered as -2.3%
A647 fluor result of `COc1ccc(/C(O)=C2/C(=O)C(=O)N(CCCN(C)C)C2c2ccco2)cc1Cl` (centres undefined) is entered as 3.1e-08
TSHR agonist result of `Fc1ccc(OCc2nn3c(Cn4nnc5ccccc54)nnc3s2)cc1` is entered as 14%

Further entries follow.
canonical_smiles	A488 fluor	AID923	A647 fluor	Resorufin fluor	TSHR agonist
CCCCCCn1c(SCCCC)nc2c1c(=O)[nH]c(=O)n2C	i	0.4%	2.1e-08	i	19%
c1ccc(CCc2nc(-c3cccnc3)no2)cc1	i	-0.3%	1.6e-09	i	-11%
Cc1nc2ncnn2c(C)c1CCC(=O)N1CCc2ccccc21	i	-1.6%	2.7e-09	i	12%
CCCCSc1nc(CCC)cc(=O)[nH]1	.	2.0%	.	.	20%
COc1cccc(-c2oc3ccccc3c(=O)c2O)c1	i	0.4%	1e-09	i	?
C=C(c1ccc(OCCO)cc1)c1ccc(OCCO)cc1	i	.	1e-09	i	.
Cc1cccc(NC(=O)N(Cc2nc3ccccc3c(=O)[nH]2)C2CCCC2)c1	i	1.8%	1.9e-08	i	9%
O=C(CNC(=O)c1ccc(Cl)cc1Cl)NCC(=O)Nc1ccccc1N1CCOCC1	i	0.3%	2.8e-08	i	2%
CC1=CCP(=O)(c2ccccc2)C1 (centres undefined)	i	0.3%	1e-09	i	-2%
CCOC(=O)N1CCN(C(=O)CSCC(=O)N=c2sc3ccccc3n2C)CC1	i	0.9%	3e-08	i	?
CC1(C)CC(=O)C(C=NCCc2ccccn2)=C(O)C1	.	2.5%	.	.	2%
O=S(=O)(c1ccccc1)N1CCC2(CCCN(c3cccc(-c4ccccc4)c3)C2)CC1	i	2.0%	1e-09	i	2%
CCCCOC(=O)C1C2C=C[C@]3(CN(C(C)c4ccc(OC)cc4)C(=O)[C@H]13)O2 (some centres undefined)	i	-0.6%	1e-09	i	0%
Cc1ccc(NS(=O)(=O)c2ccc3c(c2)oc(=O)n3C)cc1F	.	-1.5%	.	.	-4%
CS(=O)(=O)N(CC(=O)N1CCCCCC1)c1ccc2c(c1)OCCO2	i	0.7%	4e-08	i	-1%

A draw from above in order of length of the SMILES, lowest first.
canonical_smiles	A488 fluor	AID923	A647 fluor	Resorufin fluor	TSHR agonist
CCCCSc1nc(CCC)cc(=O)[nH]1	.	2.0%	.	.	20%
CCOC(=O)N1CCN(C(=O)CSCC(=O)N=c2sc3ccccc3n2C)CC1	i	0.9%	3e-08	i	?
CCCCOC(=O)C1C2C=C[C@]3(CN(C(C)c4ccc(OC)cc4)C(=O)[C@H]13)O2 (some centres undefined)	i	-0.6%	1e-09	i	0%

Carrying on.
canonical_smiles	A488 fluor	AID923	A647 fluor	Resorufin fluor	TSHR agonist
Cc1oc(-c2cccs2)[n+]([O-])c1C	i	2.4%	1e-09	i	-3%
COc1ccc(C(=O)NCCC(C)C)cc1S(=O)(=O)N1CCOCC1	i	-0.5%	3.6e-08	i	-2%[11.4 µM]
O=C1CN2CCN(CC2)CC(=O)Nc2ccc(cc2)S(=O)(=O)c2ccc(cc2)NC(=O)CN2CCN(CC2)CC(=O)Nc2ccc(cc2)S(=O)(=O)c2ccc(cc2)N1	i	-1.2%[11.5 µM]	2.4e-08	i	6%[11.4 µM]
COC(=O)Cn1nc(-c2ccccc2)c2ccccc21	i	-2.0%	1.7e-08	i	6%
O=C(O)[C@H](Cc1ccccc1)N1Cc2ccccc2C1=O	.	-0.2%	.	.	2%
CC(C)c1ccc(O)c(NC(=O)c2cncc(Br)c2)c1	i	1.0%	1e-09	i	-9%
COc1ccc2[nH]cc(CCNc3ccnc(-c4ccccc4C)n3)c2c1	i	4.6%	9.7e-09	i	-4%
Cc1cc(S(=O)(=O)Nc2ccccc2C(=O)O)ccc1Cl	i	3.8%	2.9e-09	i	6%
CCN(CC)CCNC(=O)c1ccccc1C(=O)c1ncc[nH]1	.	5.5%	.	.	4%
NC(=O)C1CCN(C(c2ccccc2F)c2nnnn2Cc2ccco2)CC1 (centres undefined)	i	5.1%	2.6e-08	i	4%
